Compound activity: PubChem BioAssay, several laboratories
CBX7 AlphaScr: CBX7 chromodomain binding inhibitors, primary screen, biochemical, AlphaScreen | Chromobox protein homolog 7 (Homo sapiens), O95931 | AlphaScreen His6-CBX7 / biotin-H3K27me3 peptide binding; active compounds read low | normalised signal (fraction of DMSO) (concentration not given with the values) | hit rate 1.1% among 66,000 | AID 1224903, 2016; in the data active means normalised signal below about 0.5;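 further: 100 nL library stock added to about 20 µL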
Target sequence (O95931 whole entry, looked up): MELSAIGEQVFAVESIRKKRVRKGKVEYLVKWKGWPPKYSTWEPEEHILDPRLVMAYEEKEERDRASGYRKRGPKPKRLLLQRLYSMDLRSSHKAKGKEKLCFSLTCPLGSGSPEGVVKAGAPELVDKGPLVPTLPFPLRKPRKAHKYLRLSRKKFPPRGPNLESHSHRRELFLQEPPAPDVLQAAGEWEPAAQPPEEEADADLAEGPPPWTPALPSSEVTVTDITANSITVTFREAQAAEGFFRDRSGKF
CBX7 AlphaScr z-score: further read-out of CBX7 AlphaScr, marked with its call; z-score; measured here: z-score of CBX7 signal; some inactives read as strong as hits; reference of the scale not given here;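 same signal on another scale; lower means less binding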
An asterisk follows results filed as active. These rows are one share of the data (hit frequency here may not be typical).

SMILES	CBX7 AlphaScr	CBX7 AlphaScr z-score
CCn1c(C(=O)N2CCC(C(=O)NC3CCC(C)CC3)CC2)cc2sccc21 (centres undefined)	0.84	-0.72
Cc1ccc(-c2nnc(Nc3ccc(F)cc3)c3ccccc23)cc1S(=O)(=O)NC(C)(C)C	0.98	-0.19
COCCCNC(=O)CSc1nc(-c2ccc(C)cc2)[nH]c1-c1ccc(C)cc1	0.92	-1.4
O=C(O)c1ccc(-n2c(=O)c3ccccc3c3ccccc3c2=O)cc1	0.95	-0.76
Cc1ccc2c(c1)NC(=O)C(CC(=O)Nc1ccccc1Cl)O2 (centres undefined)	1	1.5
COc1cc(OC)cc(C(=O)Nc2cccc(-c3nc4ccccc4o3)c2)c1	1	1
O=c1c(NCCCN2CCOCC2)c(Br)cnn1-c1ccccc1	0.97	-0.45
NC(=O)CN1C(=O)C(O)(CC(=O)c2cccc(Br)c2)c2ccccc21 (centres undefined)	1	0.031
CC(C)N1C(=O)CCC1C(=O)N1CCN(c2cccc(C(F)(F)F)c2)CC1 (centres undefined)	1.1	2
COc1ccc(-c2noc(CCC(=O)N3CCN(c4ccccn4)CC3)n2)cc1	1	0.043
CCCCNC(=O)c1ccc2c(c1)N(Cc1ccc(Cl)cc1)C(=O)c1ccccc1S2	0.9	-1.1
CC1CCCCN1CCNC(=O)CN1C(=O)COc2ccccc21 (centres undefined)	0.98	-0.33
CCn1cc(C(=O)Nc2ccccc2C(N)=O)c(=O)c2ccc(C)nc21	1	0.53
COc1ccc(NC(=O)C2c3ccccc3C(=O)N3CCc4cc(OC)c(OC)cc4C23)cc1Cl (centres undefined)	0.92	-0.29
COc1ccccc1OCCSc1nc2ccc(Br)cc2[nH]1	1.1	2.5
Cc1noc(C(=O)Nc2sc3c(c2C#N)CCC3)c1Cl	1	1.2
COCCCNC(=O)CCC(=O)Nc1ccc2nc(N3CCC(C)CC3)cc(C)c2c1	1.1	1
CC1(C)CC(=O)C2=C(C1)N(c1ccc(F)cc1F)C(=O)CC2c1cccs1 (centres undefined)	1.1	1.2
CC(NC(=O)C(=O)N1CCOCC1)C(c1cccs1)N1CCN(Cc2ccccc2)CC1 (centres undefined)	1	0.047
CC(=O)c1ccc2c(c1)c1c(n2C)C(=O)CCC1	0.99	-0.2
COc1ccc(C2c3cc(OC)c(OC)cc3CC(=O)N2c2ccc(C(=O)O)cc2)cc1 (centres undefined)	1.1	0.53
O=C(Nc1ccc(N2CCOCC2)cc1)C1(S(=O)(=O)c2ccccc2)CC1	0.99	-0.19
CCOC(=O)COc1ccc2c(=O)c(-c3ccc4c(c3)OCCCO4)c(C)oc2c1	0.93	-1.1
O=C(Nc1ccccc1-c1nc2ccccc2o1)c1ccc2c(c1)OCCO2	1	-0.016
CCN(CCNC(=O)C1CCCN(Cc2nc(-c3ccc(Cl)cc3)oc2C)C1)c1ccccc1 (centres undefined)	0.91	-2.4

Four entries from above, in markdown.
| canonical_smiles | CBX7 AlphaScr | CBX7 AlphaScr z-score |
| --- | --- | --- |
| CC(=O)c1ccc2c(c1)c1c(n2C)C(=O)CCC1 | 0.99 | -0.2 |
| COc1ccc(C2c3cc(OC)c(OC)cc3CC(=O)N2c2ccc(C(=O)O)cc2)cc1 (centres undefined) | 1.1 | 0.53 |
| O=C(Nc1ccc(N2CCOCC2)cc1)C1(S(=O)(=O)c2ccccc2)CC1 | 0.99 | -0.19 |
| CCOC(=O)COc1ccc2c(=O)c(-c3ccc4c(c3)OCCCO4)c(C)oc2c1 | 0.93 | -1.1 |

Returning to the listing, repeating the 4 entries before the break.
SMILES	CBX7 AlphaScr	CBX7 AlphaScr z-score
O=C(Nc1ccc(N2CCOCC2)cc1)C1(S(=O)(=O)c2ccccc2)CC1	0.99	-0.19
CCOC(=O)COc1ccc2c(=O)c(-c3ccc4c(c3)OCCCO4)c(C)oc2c1	0.93	-1.1
O=C(Nc1ccccc1-c1nc2ccccc2o1)c1ccc2c(c1)OCCO2	1	-0.016
CCN(CCNC(=O)C1CCCN(Cc2nc(-c3ccc(Cl)cc3)oc2C)C1)c1ccccc1 (centres undefined)	0.91	-2.4
Cc1ccc2oc(-c3ccc(Cl)c(NC(=O)COc4ccccc4)c3)nc2c1	1	0.31
CCCC(O)(CCN1CCCCCC1)c1ccccc1 (centres undefined)	1.1	1.8
COc1ccc(-c2nc3sccn3c2Nc2ccc3c(c2)OCO3)cc1	0.47*	-20*
CC(C)NC(=O)c1cc(-c2cccnc2)nc2ccccc12	1	0.46
O=C(NCc1cccnc1)c1ccc2c(c1)N(Cc1c(F)cccc1Cl)C(=O)CS2	1	-0.08
COC(=O)c1cc2c(s1)CN(c1cccc(Cl)c1)C2	1	1.6
Cc1nc2ccc(S(=O)(=O)NC(C(=O)N3CCCCCC3)C(C)C)cc2s1 (centres undefined)	1	0.84
CCCc1nc(N2CCOCC2)c(C#N)c2c1CCCC2	1	0.68
CC(C)(C)NC(=O)C1CC(c2ccc(F)cc2)=NO1 (centres undefined)	0.99	-0.58
CCN(CC)CCCNC(=O)Cn1cnc2ccc(S(=O)(=O)N3CCC(C)CC3)cc2c1=O	1.1	0.82
CCC1CCCCN1CCCNC(=O)C1CCCN(c2nn3c(=O)cc(C)nc3s2)C1 (centres undefined)	0.97	-0.2
CCC(C)c1ccccc1OCC(O)CN1CCN(c2ccccc2)CC1 (centres undefined)	0.96	-1
Cc1ccc(-c2nn(CC(=O)Nc3ccc(C(=O)N(C)C)cc3)c(=O)c3ccccc23)cc1	0.98	-0.25
CCn1c(/C=C/c2cn(C)c3ccccc23)nc2ccccc2c1=O	1.2	3.8
O=C(NCCN1CCOCC1)c1ccc2c(c1)N(Cc1ccccc1F)C(=O)c1ccccc1S2=O (centres undefined)	1	0.1
COc1ccc(OC)c(NC(=O)C2CCCN(S(=O)(=O)c3cccc4cccnc34)C2)c1 (centres undefined)	0.99	-0.34
COc1ccc(CNC(=O)C2CC(=O)N(c3ccc(OCC(=O)Nc4ccc(C)cc4)cc3)C2)cc1 (centres undefined)	0.9	-1.9
Cc1cc(Nc2cccc(O)c2)c2cccc(C)c2n1	0.98	-0.62
Cn1c(SCC(=O)Nc2ccc(OC(F)(F)F)cc2)nnc1-c1cccnc1	1	0.18
O=C(CN1C(=O)CCC1=O)Nc1ccc(O)c(-c2nc3ccccc3s2)c1	1.1	0.66
Brc1cccc(-c2nc(-c3ccccc3)c(-c3ccc(Oc4ccccc4)cc3)[nH]2)c1	0.79	-0.83
COc1ccc(Nc2ncc(C(=O)Nc3ccc(F)c(Cl)c3)c3ccccc23)cc1	1	0.14
O=C(O)c1ccc2nc(N3CCOCC3)sc2c1	1.1	3
COc1ccc(-n2c(C)nc3cc(C(=O)NCc4cccnc4)ccc32)cc1	0.97	-0.9
CCn1c(C(=O)N2CCC(C(=O)NCc3ccc(F)cc3)CC2)cc2sccc21	0.83	-0.76

Seven structures already listed, arranged by length of the SMILES, low to high:
SMILES	CBX7 AlphaScr	CBX7 AlphaScr z-score
CCCC(O)(CCN1CCCCCC1)c1ccccc1 (centres undefined)	1.1	1.8
COC(=O)c1cc2c(s1)CN(c1cccc(Cl)c1)C2	1	1.6
CCn1c(/C=C/c2cn(C)c3ccccc23)nc2ccccc2c1=O	1.2	3.8
Cn1c(SCC(=O)Nc2ccc(OC(F)(F)F)cc2)nnc1-c1cccnc1	1	0.18
CCC1CCCCN1CCCNC(=O)C1CCCN(c2nn3c(=O)cc(C)nc3s2)C1 (centres undefined)	0.97	-0.2
O=C(NCCN1CCOCC1)c1ccc2c(c1)N(Cc1ccccc1F)C(=O)c1ccccc1S2=O (centres undefined)	1	0.1
COc1ccc(CNC(=O)C2CC(=O)N(c3ccc(OCC(=O)Nc4ccc(C)cc4)cc3)C2)cc1 (centres undefined)	0.9	-1.9

Following part:
SMILES	CBX7 AlphaScr	CBX7 AlphaScr z-score
Cc1ccc(CCNC(=O)C2CC(=O)N(CCc3ccccc3)C2)cc1 (centres undefined)	1.1	2.4
O=c1c2cccnc2n(Cc2ccccc2F)c(=O)n1CCc1c[nH]c2ccccc12	0.74	-5.9
Cc1ccc(N2CC(c3nc4ccccc4n3CC(C)C)CC2=O)c(C)c1 (centres undefined)	0.94	-1.2
C/C(=C\c1ccccc1)c1nc2cccc(C)n2c1Nc1c(C)cccc1C	0.88	-0.16
OC(COc1cccc2cccnc12)Cn1c2ccccc2c2ccccc21 (centres undefined)	0.85	-4.3
Cc1oc(-c2ccccc2Cl)nc1CSCC(=O)NC1CCCC1	1.1	0.74
CCOC(=O)[C@@H]1CCN(Cc2ccccc2)C[C@H]1c1ccccc1	1.3	5.1
COc1ccc(Nc2ncc(C(=O)Nc3cc(Cl)c(OC)cc3OC)c3ccccc23)cc1	1.1	1.5
CCC1Oc2ccccc2N(CC(=O)NCc2ccc3c(c2)OCO3)C1=O (centres undefined)	1.1	2.8
CC(C)n1c(C2CC(=O)N(c3ccccc3)C2)nc2ccccc21 (centres undefined)	0.96	-0.82
COCCCNC(=O)CN1C(=O)COc2ccccc21	1.1	3
CN(C)CCCN1c2ccccc2CCc2ccc(Cl)cc21	0.9	-2
CCN(c1cccc(C)c1)S(=O)(=O)c1ccc2c(c1)CCC(=O)N2	0.93	-1.5
CCc1ccc(NC(=O)Cn2c(SCc3ccccc3F)nc3ccncc32)cc1	0.99	-0.37
Cc1ccc(NC(=O)c2cnn(-c3ccc(F)cc3)c2C2CCN(C(=O)OC(C)(C)C)CC2)cc1C	1.1	3
COc1cc([N+](=O)[O-])ccc1NC(=O)c1c(-c2ccccc2Cl)noc1C	0.83	-2.4
Cc1ccc(OCC(=O)Nc2cc(-c3nn(C)c(=O)c4ccccc34)ccc2N2CCOCC2)cc1	0.9	-2.7
Cc1ccc(NC(=O)c2sc3ncn(Cc4cccc(F)c4)c(=O)c3c2C)c(Br)c1	1.1	0.35
NC(=O)c1cc(-c2ccc(Br)cc2)no1	0.78	-2.6
Cc1ccc(-c2cc3c(n2-c2ccccc2)CC(C)(C)CC3=O)cc1	0.95	-1
O=C(COc1cccc(C(F)(F)F)c1)Nc1ncc(Cc2cccc(C(F)(F)F)c2)s1	1	0.84
O=c1[nH]cnc2c1c(-c1ccccc1)c(-c1ccccc1)n2CCc1ccc(F)cc1	0.79	-3.7
CCNC(=O)c1ccccc1NC(=O)c1cccc(S(=O)(=O)N2CCOCC2)c1	1.1	2.2
C=CCNc1nc(-c2ccccc2)cs1	1	0.14
C=C(C)Cn1c(C(C)NC(C)=O)nc2ccccc21 (centres undefined)	1	0.6

(cont.)
SMILES	CBX7 AlphaScr	CBX7 AlphaScr z-score
CCc1ccc(NS(=O)(=O)c2ccc3c(c2)CCN3C(=O)C2CC2)cc1	0.91	-2.2
O=C(Cc1c(F)cccc1Cl)Nc1ccc2nc3n(c(=O)c2c1)CCCCC3	1	1.2
COc1ccc(-c2cn3c(C)c(C(=O)Nc4ccc(OC)c(OC)c4)sc3n2)cc1	0.86	-2.3
Cc1ccc(C)c(NC(=O)CSc2nnc(Cc3cc(=O)[nH]c(=O)[nH]3)n2-c2ccc(Cl)cc2)c1	1	0.51
COC(=O)c1ccc(C2C(Oc3ccccc3)C(=O)N2c2cccc(Cl)c2)cc1 (centres undefined)	0.92	-1.1
Clc1ccc(Cl)c(Nc2nc(-c3ccc(I)cc3)cs2)c1	0.89	-1.7
Cc1cc2ccccc2c(=O)n1CC(=O)NCCCN1CC(C)CC(C)C1 (centres undefined)	1	0.56
CCOc1ccc(NC(=O)N(C2CCCCC2)C2CCN(C(C)=O)CC2)cc1	0.97	-0.79
OC(/C=C/CN1CCCCC1)(c1ccccc1)c1ccccc1	1.2	1.7
CC(=O)Nc1ccc(S(=O)(=O)NCc2ccc(C(=O)NCc3ccc(Cl)cc3)cc2)cc1	1	0.012
CC1CCCN(S(=O)(=O)c2ccc(C(=O)Nc3ccccc3-c3nc4ccccc4o3)cc2)C1 (centres undefined)	1	0.2
O=C(c1nnc(Cc2ccc(F)cc2)o1)N1CCOCC1	0.92	-0.9
CCCCCC1CCc2nc(/C=C/c3ccccc3)ccc2C1 (centres undefined)	1.2	3
CCCCOc1ccc(C(=O)Nc2nnc(C(C)C)s2)cc1	1	0.24
CC1CCCN(S(=O)(=O)c2ccc3[nH]c(=O)cc(C(=O)NCCc4ccc(Cl)cc4)c3c2)C1 (centres undefined)	1.1	2.2
Cc1cccn2cc(-c3ccc(NC(=O)c4ccccc4Cl)cc3)nc12	0.96	-1.7
COc1ccc(CN2CCN(C(=O)c3cc(OC)c(OC)c(OC)c3)CC2)cc1Br	0.78	-2.6
COc1ccc(-n2c3c(cc(C(=O)Nc4ccccc4F)c2=O)C(=O)CC(C)(C)C3)cc1	1.1	1.4
Cc1onc(-c2ccccc2)c1C(=O)Nc1nnc(N2C(C)CCCC2C)s1 (centres undefined)	0.94	-1.8
CC1(C)CC(=O)c2sc(NC(=O)Cc3ccc(F)cc3)nc2C1	0.96	-1.2
Cc1ccc(-c2nc(CSCC(=O)NCCN3CCCC3)c(C)o2)cc1	1	0.12
C=CCNC(=O)C1CC(c2ccc(OC)cc2)=NO1 (centres undefined)	1.1	1.1
O=C(O)c1ccccc1C(=O)Nc1nc(-c2cccs2)cs1	1	-0.039
COc1nnc(-c2ccc(N3CCOCC3)c(NC(=O)c3ccco3)c2)c2ccccc12	0.98	-0.45
Cc1nc2c(-c3ccccc3)c(C)nn2c(C)c1CCC(=O)NCCc1ccccc1	1.2	2.2

Later entries
SMILES	CBX7 AlphaScr	CBX7 AlphaScr z-score
Cc1cc(N2CCOCC2)nc2ccc(NC(=O)Cc3ccccc3Br)cc12	1.1	0.93
O=c1[nH]c2ccc(S(=O)(=O)Nc3ccc(C(F)(F)F)cc3)cc2[nH]c1=O	1	1.4
CCc1nc2ccccc2n1CC(O)COc1c(C)cc(C)cc1C (centres undefined)	0.94	-1.5
C=CCN(c1ccccc1)S(=O)(=O)c1ccc2[nH]cc(C(=O)NC3CCCCC3)c(=O)c2c1	0.93	-1.1
CC(C)Cn1c(C2CC(=O)N(Cc3ccccc3)C2)nc2ccccc21 (centres undefined)	1	0.27
CCc1ccc(Nc2cc(C(=O)NCCCN3CCOCC3)c3ccccc3n2)cc1	1.1	1.9
Cc1ccc2c(c1)C(COc1ccccc1)=NNC(c1ccc(Br)cc1)=N2	0.86	-5.2
CCOc1ccc(-c2cc(C(=O)NCCN3CCCCCC3)c3ccccc3n2)cc1	1.1	2.2
